# Screening data as filed in PubChem BioAssay.
# gsp ag: activates gsp, the McCune-Albright syndrome mutation. gsp mutant cells, cAMP HTRF, 30 min; control for the full effect not named in the record. Potency, µM (top dose mostly 76.9 µM), without a hit: at the highest dose activation (cAMP increase), actives largely listed as activators. 340,000 compounds, 0.13% hits. AID 624287; active = well fitted activation curve with a large enough effect; inconclusive = small, poorly fitted or top-dose-only effect, or another doubt; inactive = no such curve, though single readings can be large or run the other way; cell line not stated here;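 also: phosphodiesterase inhibitor Ro 20-1724 added with compounds to block cAMP breakdown; potency is read from the fitted curve at half-maximal effect; nearly all actives have a fitted effect of over 60% in size; about a fifth of the inactives were tested at one dose only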
#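 Cells stably selected in G418 were plated at 2000/well, grown 16-24 hr, then given compounds in DMSO with the PDE inhibitor […] (300 uM solution added) for 30 min at 37C; cAMP was read by HTRF.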
# Menin MLL FP FL: inhibitors of human menin-MLL interaction, wild-type MLL peptide; FP activity change, % at 61.4 µM; 290,000 tested, under 10 active; Fluorescence polarization, fluorescein-MLL peptide displacement from menin; inconclusive = falling polarisation curve, or a change in total fluorescence; inactive = total fluorescence flat and polarisation flat or rising; no compound was filed as active; the % refers to the polarisation; negative = inhibition;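 also: % of control where 0% means no effect; inhibitors lower the polarisation; unlabelled MLL peptide was the positive control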
# TRPML1 blocker: blocks the human TRPML1 channel; TRPML1-inducible cells, Ca2+ dye fluorescence, FDSS; stronger effect = lower value; inhibition of EC80 agonist-evoked calcium signal; activity change, negative = inhibition, % (test concentration not listed); 390,000 compounds, 0.02% hits; AID 624415; in the data active means activity change below about -50%; inconclusive means about -30% to -50%; inactive means above about -30%;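 also: stimulus is agonist 54-4 at its EC80 concentration; % is scaled to controls: 0 for no effect and ±100 for the full control effect; compound concentration not given in the record; the text of the record puts the active cut at -80%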
# Target sequence (Q9GZU1 whole entry, looked up): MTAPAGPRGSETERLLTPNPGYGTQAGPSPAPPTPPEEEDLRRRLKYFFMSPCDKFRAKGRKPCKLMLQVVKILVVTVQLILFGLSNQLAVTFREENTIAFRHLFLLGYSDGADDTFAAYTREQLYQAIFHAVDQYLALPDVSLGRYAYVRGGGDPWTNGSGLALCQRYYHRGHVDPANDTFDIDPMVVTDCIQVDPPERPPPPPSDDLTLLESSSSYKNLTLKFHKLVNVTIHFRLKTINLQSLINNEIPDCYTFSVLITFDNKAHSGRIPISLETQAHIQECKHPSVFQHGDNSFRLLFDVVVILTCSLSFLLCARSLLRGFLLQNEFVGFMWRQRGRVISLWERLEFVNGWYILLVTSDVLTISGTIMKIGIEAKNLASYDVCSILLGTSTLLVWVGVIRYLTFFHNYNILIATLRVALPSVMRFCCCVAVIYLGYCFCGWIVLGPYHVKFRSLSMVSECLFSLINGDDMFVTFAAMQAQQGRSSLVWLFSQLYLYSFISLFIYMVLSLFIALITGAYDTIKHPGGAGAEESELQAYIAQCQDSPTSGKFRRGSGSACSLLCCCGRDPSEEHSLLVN
#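 Tet-induced TRPML1-DL cells loaded with Ca8 no-wash calcium dye were read kinetically on FDSS. Compound addition was followed by EC80 agonist 54-4 (4 uM final); inhibition was read over 110 s.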
# TRPML1 ag: human mucolipin-1 channel agonism; Q9GZU1; TRPML1-expressing cells, Ca2+ dye fluorescence, FDSS; host cell line not named in the record; reference of the full effect not given here; activation, % (concentration not given with the values); 410,000 compounds, 0.12% hits; AID 624414; in the data active = activation above about 50%; inconclusive = about 30% to 50%; inactive = below about 30%; also: 0% is about no effect; the text of the record puts the active cut at 80%
#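 Tetracycline-induced TRPML1-DL cells are seeded and incubated overnight before loading with a no-wash Ca2+ dye and quencher. Agonist activity is taken from the 110 s fluorescence read following compound pin-transfer on an FDSS, before EC80 54-4 challenge.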
# gsp antag: antagonizes gsp, the McCune-Albright syndrome mutation. 340,000 compounds, 0.4% hits. Potency, µM (titrated, usually from 76.9 µM), without a hit: at the highest dose activity change, negative = inhibition, most hits filed as inhibitors. gsp-mutant cells, cAMP HTRF, 30 min; control for the full effect not named in the record. AID 624288; active = falling curve of any shape with a large fitted effect; inconclusive = falling curve, mostly with a smaller effect; inactive = flat or rising curve; cell line not stated here;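 also: intracellular cAMP measured with PDE inhibitor Ro 20-1724 present during compound exposure; potency is read from the fitted curve at half-maximal effect; % is scaled to controls: 0 for no effect and ±100 for the full control effect; nearly all actives have a fitted effect of over 65% in size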
#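 G418-selected cells were plated in DMEM/10% FBS for 16-24 h at 37C, then treated with compounds plus the PDE inhibitor […] (300 uM solution added) for 30 min at 37C. Intracellular cAMP was measured by HTRF after 30 min lysis at room temperature.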
# ClpP mod: qHTS Assay for Activators of ClpP. ATP-dependent Clp protease proteolytic subunit (Bacillus subtilis (strain 168)), P80244. purified B. subtilis ClpP, FRET peptide cleavage, 20 min. Potency, µM (titrated, usually from 57.5 µM), inactives show top-dose activity change, negative = active. 340,000 compounds, 1.9% hits; active = well fitted falling curve with a large enough effect; inconclusive = small, poorly fitted or top-dose-only effect; inactive = no such curve, though single readings can be large or run the other way; also: potency is read from the fitted curve at half-maximal effect; the source files actives as falling curves though it sought activators and does not explain the sign; nearly all actives have a fitted effect of over 65% in size; many hits overshoot -100%
# Target sequence (P80244 whole entry, looked up): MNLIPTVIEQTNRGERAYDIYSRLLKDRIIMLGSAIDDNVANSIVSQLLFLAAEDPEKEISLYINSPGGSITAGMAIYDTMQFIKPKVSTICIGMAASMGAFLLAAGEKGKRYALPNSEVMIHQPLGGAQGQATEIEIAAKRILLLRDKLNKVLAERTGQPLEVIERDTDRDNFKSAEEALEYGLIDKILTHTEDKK
#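 Purified B. subtilis ClpP, 10 microg/mL final in Tris/HCl pH8 with KCl, BSA, glycerol and Tween-20, cleaved an Abz/nitrotyrosine-quenched decapeptide. Fluorescence (ex 320, em 430) was read at 0 and 20 min at room temperature. Delta was normalized to 5.8 microM ADEP and DMSO/no-enzyme controls.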
# Numbers without * were called inactive; ? = inconclusive; . = not tested or not shown; & = joins results of further samples; ! = not confirmed by another sample; [ ] = another dose, or the depositor's remark.
smiles	gsp ag	Menin MLL FP FL	TRPML1 blocker	TRPML1 ag	gsp antag	ClpP mod
O=C(Cc1c[nH]c2ccccc12)OCC(=O)c1ccccc1	-7.9%	3.3	-8.0	0.7	5.9%	0.3%
COc1ccc(C2Nc3ccccc3C(=O)N2Cc2ccco2)cc1COc1ccc(NC(C)=O)cc1 (centres undefined)	-1.6%	-2.1	-10.2	-0.4&-1.0	-11.7%	31.6µM*!
C#CCSc1nc(N)c2c(n1)OC(N)=C(C#N)C2c1cccnc1 (centres undefined)	-26.0%	0.1	12.8	0.6	-3.1%	.
COc1ccc(S(=O)(=O)N2CCc3cc(OC)c(OC)cc3C2)cc1	-36.1%	0.9	11.0	1.5	-5.4%	-2.8%
COc1ccc(NS(=O)(=O)c2cccs2)cc1S(=O)(=O)N1CCOCC1	8.0%[15.4 µM]	5.9	-10.7	-0.4	-31.1%	.
COc1ccc(C2C(C#N)=C(N)N(c3ccccc3)C3=C2C(=O)CCC3)cc1Cn1cc([N+](=O)[O-])cn1 (centres undefined)	12.5%	-11.1	-4.2	-1.1	2.2%	1.3%
COc1ccc(S(=O)(=O)NCCc2cn3ccsc3n2)cc1OC	.	.	-8.1	-0.1	.	-0.3%
CN(C(=O)COC(=O)c1cc(S(=O)(=O)N2CCCCC2)ccc1N1CCOCC1)C1CCS(=O)(=O)C1 (centres undefined)	-9.2%	4.1	5.8	0.5	9.2%	0.0%
CN1CCN(C=NC2=NN(c3cccc(C(F)(F)F)c3)CC2)CC1	-10.9%	0.1	-13.6	-0.3	-19.8%	-6.9%
CC1CC(C)CN(C(=O)COC(=O)c2ccc[nH]c2=O)C1 (centres undefined)	8.8%	0.3	-10.6	-0.2	10.8%	-7.4%
COc1cc2oc(=O)c(CC(=O)NCCc3ccccc3F)c(C)c2cc1OC	.	.	15.5	-0.7	.	4.4%
C[n+]1cn(Cc2cc(Cl)ccc2OC(F)F)c2ccccc21	-5.2%	2.4	-2.2	0.6	4.7%	0.7%
Cc1ccc(C)c(-n2c(CNc3ccc(F)cc3)nnc2SCC(N)=O)c1	-1.6%	1.8	-14.7	-0.4	-4.8%	-0.5%
O=Cc1cn(-c2ccc(F)cc2)c2ccccc12	20.7%	2.8	-0.3	0.8	8.8%	-1.6%
COc1ccccc1N1CCN(S(=O)(=O)c2c(C)[nH]c(=O)[nH]c2=O)CC1	2.8%[15.4 µM]	0.6	-5.9	2.2	1.5%	.
Cc1cc(N)ncc1[N+](=O)[O-]	15.6%	.	-5.0	0.4	10.4%	.
COc1ccc(S(=O)(=O)N2CCCCC2)cc1-n1cnnn1	9.6%[15.4 µM]	-2.1	-0.4	0.0	5.6%	.
Cc1ccc(OCC(=O)NC2CCS(=O)(=O)C2)cc1 (centres undefined)	-19.2%	1.7	2.5	0.6	0.6%	0.1%
COc1ccccc1N1CCN(c2ccc(S(=O)(=O)N3CCN(C)CC3)cn2)CC1	-9.2%	.	5.7	0.6	10.5%	.
CC(=O)Nc1ccc(NC(=O)CCC(=O)c2ccc(C)cc2)cc1	.	.	-21.8	0.9	.	1.0%
CCn1cc(C(=O)NCCC(=O)NCCO)c(=O)c2cc3c(cc21)OCO3	20.5%[15.4 µM]	1.5	2.0	-0.1	10.0%	.
COC(=O)c1ccc(Cn2nnc3c(=O)[nH]c(C4CCCN(S(=O)(=O)c5ccccc5)C4)nc32)cc1 (centres undefined)	-6.7%	.	17.8&-1.7	-0.5&-0.3	0.7%	0.2%&-1.1%
COc1ccc(CC(=O)NCc2nc3cccnc3n2Cc2ccccc2)cc1	.	.	55.4	-0.3	.	-3.7%
CCc1ccc2[nH]c(=O)c(CN(Cc3ccc4c(c3)OCO4)Cc3nnnn3C3CCCC3)cc2c1	-7.6%	0.9	9.7	1.0	-9.3%	-17.0%
O=C(NCCO)c1cccc2c1-c1ccccc1C2=O	-17.2%[15.4 µM]	-1.5	0.5	-0.4	?	.
CS(=O)(=O)N(CC(=O)NCc1ccc2c(c1)OCO2)Cc1ccc(Cl)cc1	-29.7%	2.5	-3.1	-0.5	-3.3%	-1.8%
O=C(CCS(=O)(=O)c1ccccc1)Nc1nc2cc3c(cc2s1)OCCO3	10.6%	3.8	-13.6	-0.3	-18.4%	0.3%
COc1ccc(-c2cc(C#N)nc(N3CCN(C)CC3)n2)cc1	3.3%[15.4 µM]	5.6	10.8	0.0	6.9%	.
COc1ccc(OCC(O)CN2CCCCC2)cc1 (centres undefined)	5.3%	4.1	5.0	-0.4	10.3%	-0.3%
Cc1sc2ncnc(N3CCC(C(=O)Nc4sc5c(c4C(N)=O)CCC(C)C5)CC3)c2c1C (centres undefined)	-1.6%	.	6.8	0.2	-12.3%	-3.3%
Cc1noc(C)c1CSc1nnc(-c2ccccc2)o1	-2.5%[15.4 µM]	4.2	-1.2	0.4	9.8%	0.7%
CC1CCCN(c2nc3c(S(=O)(=O)c4ccc(C(C)C)cc4)nnn3c3ccsc23)C1 (centres undefined)	.	.	24.2	1.7	.	-6.4%
Cc1ccc(C)c(N(CC(=O)N2CCCC2)S(C)(=O)=O)c1	?	-1.3	1.5	-0.1	7.8%	.
CC(C)C1C(=O)N(Cc2cn(CCC3OCCCO3)nn2)CCS(=O)(=O)N1Cc1ccc(-c2ccc(Cl)cc2)cc1 (centres undefined)	-47.1%[inhibitor]	.	-8.4	0.0	.	1.9%
COc1cccc(Cn2cnc3c(NS(=O)(=O)c4ccc(Cl)cc4)c(C)c(C)cc32)c1	?	0.0	54.0	2.3	-0.1%	1.7%
CC(=O)Nc1ccc(NC(=O)CCc2nc3sc4c(c3c(=O)[nH]2)CCCC4)cc1	15.5%	.	18.4	-0.2	10.4%	3.9%
COc1ccc(/C=N/Nc2snc(SC)c2C#N)cc1OC	7.0%	5.5	5.1	-0.2	1.9%	-15.5%
O=C(O)c1cscn1	0.0%	1.3	-11.8	-0.1	0.2%	2.1%
CCCn1c(=O)c(/C(N)=N/O)nn(-c2cccc(C(F)(F)F)c2)c1=O	3.0%[15.4 µM]	1.1	7.1	1.0	5.4%	0.5%
COc1ccc(-c2cc(C(=O)Nc3ccc(C(N)=O)cc3)c3ccccc3n2)cc1OC	-18.0%[15.4 µM]	0.5	6.9	-0.2	-5.7%	.
O=C(NCc1cccc2ccccc12)Nc1ccccc1	27.2%	0.0	28.2	0.0	-7.1%	-4.1%
Cc1ccc2ccc(S(=O)(=O)NCc3ccccn3)cc2c1	20.4%	-0.1	-10.5	2.0	1.1%	.
Cc1cc(C)c2c(CN(Cc3ccccc3)Cc3ccccc3)cc(=O)oc2c1	.	.	12.4	-0.3	.	-9.6%
O=C(NCCc1ccc(Cl)cc1)c1ccc2c(c1)N(Cc1ccc(F)cc1Cl)C(=O)CS2	.	.	-12.3	-0.1	.	-2.6%
COc1ccc(/C=C(/NC(=O)c2ccco2)C(=O)Nc2ccc(C(C)=O)cc2)cc1	-2.0%[15.4 µM]	-12.1	-11.3	-0.3	2.5%	.
COc1ccc(Cc2nc3ccc(C(=O)NCCc4ccncc4)cc3o2)cc1OC	20.4%	.	14.5	0.0	-3.3%	-0.4%
O=S(=O)(NCc1nc2cccnc2n1Cc1ccccc1)c1ccc2c(c1)CCCC2	.	.	-8.1	2.3	.	2.1%
CCOC(=O)C(=O)Nc1ccccc1C(=O)NCc1ccccc1	7.0%	-0.4	-13.6	0.9	8.8%	0.6%
NC(=S)NC(=O)/C=C/c1ccccc1	3.0%[15.4 µM]	-3.6	-3.6	0.5	-6.4%	.
CSc1ncccc1C(=O)NNC(=O)c1csc(N2CCOCC2)n1	-8.5%	.	-8.7	0.0	.	-4.2%
NC(=S)N=Nc1ccc(NN=C(N)N)cc1	.	-0.1&-7.6	27.2	-0.8	?	1.1%
O=C(c1cc(COc2ccc(F)cc2F)on1)N1C[C@H]2CC[C@H]1C2	-0.1%	.	-3.5	-0.5	-1.1%	-2.6%
CCn1cc2nc(SCC(=O)Nc3ccc(OC)c(Cl)c3)n(Cc3ccc(OC)cc3)c(=O)c2n1	.	.	1.5	0.9	.	-2.9%
CCCN(CCC)CCNC(=O)CN1C(=O)COc2ccc(S(=O)(=O)N3CCC(C)CC3)cc21	.	.	-12.0	2.1	.	-1.5%
Cc1ccc(/C=C(\NC(=O)c2ccc(C)cc2)c2nc(=S)[nH][nH]2)cc1	9.2%	2.9	13.3	3.3	-10.9%	-4.7%
Cc1c(NC(=O)c2ccccc2NS(=O)(=O)c2ccc(F)cc2)c(=O)n(-c2ccccc2)n1C	-7.1%	2.2	-14.9	0.0	-17.6%	-1.1%
CC(=O)Nc1cccc(OCCCNC(=O)c2ccc(C(C)(C)C)cc2)c1	?	4.8	34.6	4.5	-15.1%	-0.6%
Cc1nnc(SCC(=O)N2c3ccccc3CC2C)[nH]c1=O (centres undefined)	-25.3%	2.8	-16.2	-0.7	-20.6%	1.3%
Cc1ccc(S(=O)(=O)N2CCOCC2)cc1C(=O)N(C)CCOc1ccc(Cl)cc1	-5.2%[15.4 µM]	1.8	-4.0	0.5	-18.7%	.
CC(=O)c1cc2c(cc1NC(=O)Cn1nc(-c3ccc(F)cc3)ccc1=O)OCO2	-1.9%[15.4 µM]	1.8	-6.5	1.6	-16.4%	.

# The results go on.
smiles	gsp ag	Menin MLL FP FL	TRPML1 blocker	TRPML1 ag	gsp antag	ClpP mod
C=COCCNC(=S)Nc1ccccc1	9.1%[15.4 µM]	-0.4	17.9	1.8	7.1%	.
CCOC(=O)C1=C(C)NC(=O)NC1c1cn(-c2ccccc2)nc1-c1ccc(OC(C)C)cc1 (centres undefined)	.	.	16.6	1.6	.	2.4%
Cc1ccccc1C(=O)Nc1ccc(S(=O)(=O)N2CCCC2)cc1	1.8%[15.4 µM]	-2.6	-7.4	1.2	.	.
COc1ccc(C(C(=O)NC2CCCC2)N(C(=O)c2ccco2)c2ccccc2OC)cc1 (centres undefined)	-38.7%[15.4 µM]	.	15.0	-0.5	-0.3%	.
COc1ccc(CNC[C@H]2O[C@@H](n3ccc(=O)[nH]c3=O)[C@H](O)[C@@H]2O)cc1OC	.	.	-5.9	0.0	8.2%	-0.4%
CC(=O)NC(Cc1ccccc1F)C(=O)NC1CCN(c2ncccc2[N+](=O)[O-])CC1 (centres undefined)	-29.2%	2.3	3.9	0.2	1.1%	0.2%
COc1ccc(C2=NOC(C(=O)NCc3ccccn3)C2)cc1 (centres undefined)	-1.1%	0.1	25.1	2.4	19.5%	-4.1%

# Not a hit list (roughly 2.1% active in at least one column).
